NS1 function inh: influenza NS1 inhibition; S. cerevisiae slowed by influenza A NS1, growth recovery by OD600; Potency, µM (series often up to 46.1 µM), for inactives: at the top dose activity, positive = more growth; actives 0.4% (n = 270,000); further: actives are rising curves; nearly all actives have a fitted effect of over 50% in size
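Compounds were scored for reversing the slow growth caused by influenza A NS1 in S. cerevisiae, measured by optical density at 600 nm. Assay medium contained 2% galactose at pH 6.0; NS1-free yeast of the same strain were the positive control.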
MARV entry inh: blocks Marburg virus binding to or entry into cells. Potency, µM (series often up to 37.8 µM), for the others: at the highest dose activity change, negative = inhibition, most hits filed as inhibitors. AID 540276. actives 1.8% (n = 300,000). Marburg virus pseudotyped entry inhibition, cell reporter; control for the full effect not named in the record; about a third of the inactives were read at about 46 µM; active = well fitted inhibition curve with a large enough effect; inconclusive = small, poorly fitted or top-dose-only effect, or effect the other way; inactive = flat fitted curve, though single readings scatter; tested in HEK293 cells; about a fifth of its hits are not listed in these tables; further: on the % scale 0 is the no-effect control and ±100 the full control effect; luciferase read-out
Lassa entry inh: inhibitors of Lassa virus binding or cell entry. Lassa virus pseudotype entry inhibition, cell reporter; control for the full effect not named in the record. Potency, µM (doses to about 37.9 µM), without a hit: at the highest dose activity change, negative = inhibition, actives largely listed as inhibitors. actives 1.2% (n = 300,000). AID 540256; active means well fitted inhibition curve with a large enough effect; inconclusive means small, poorly fitted or top-dose-only effect, or effect the other way; inactive means flat fitted curve, though single readings scatter; tested in HEK293 cells; further: on the % scale 0 is the no-effect control and ±100 the full control effect; nearly all actives have a fitted effect of over 50% in size; luciferase read-out
Cruzain Triton: blocks cruzain activity in presence of Triton detergent; Potency, µM, inactives show max response, negative = inhibition, most hits filed as inhibitors; purified cruzain, Z-FR-AMC fluorescence, 0.01% Triton; AID 1478; actives 0.43% (n = 200,000); active means well fitted curve in the direction sought with a large enough effect; inconclusive means small, poorly fitted or top-dose-only effect, or another doubt; inactive means no such curve, though single readings can be large; an effect the other way counts as inactive or inconclusive;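 further: plate controls were neutral wells for no effect and buffer without enzyme for full effect; nearly all actives have a fitted effect of over 40% in size; top concentration of the series not given in the record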
Target sequence (P25779 123-467 limits assumed): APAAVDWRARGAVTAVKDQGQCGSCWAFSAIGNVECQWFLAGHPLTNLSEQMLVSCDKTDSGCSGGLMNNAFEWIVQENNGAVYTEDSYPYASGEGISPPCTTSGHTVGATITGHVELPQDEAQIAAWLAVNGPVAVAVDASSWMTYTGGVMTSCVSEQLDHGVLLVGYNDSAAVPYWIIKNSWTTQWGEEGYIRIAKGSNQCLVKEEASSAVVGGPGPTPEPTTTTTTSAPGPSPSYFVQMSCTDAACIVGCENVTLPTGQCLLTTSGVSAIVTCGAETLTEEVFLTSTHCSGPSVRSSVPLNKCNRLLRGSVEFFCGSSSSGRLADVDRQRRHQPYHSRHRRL
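Enzyme 1.5 nM, Z-FR-AMC 2 uM, NaOAc 100 mM pH 5.5, DTT 5 mM, Triton X-100 0.01%; 15 min RT compound preincubation; kinetic ex360/em450, 60 s delta.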
2A StopGo: lowers the luciferase signal of an FMDV 2A StopGo reporter | Potency, µM (series often up to 57.9 µM), without a hit: at the highest dose signal change, negative = less light | actives 1.2% (n = 410,000) | human cells with a luciferase reporter of 2A StopGo recoding; control for the full effect not named in the record | AID 1159524; active = well fitted falling curve with a large enough effect; inconclusive = small, poorly fitted or top-dose-only effect; inactive = no such curve, though single readings can be large or run the other way; tested in HEK293T cells; further: on the % scale 0 is the no-effect control and ±100 the full control effect; nearly all actives have a fitted effect of over 45% in size; luciferase light after 4 h
RE007 growth inh: less growth of the S. pombe RE007 Vpr strain. S. pombe RE007 Vpr strain, BacTiter-Glo ATP luminescence, 24 h; control for the full effect not named in the record. actives 0.21% (n = 360,000). AID 651644. Potency, µM (series often up to 92.2 µM), for inactives: at the top dose activity change, negative = less growth; active = well fitted falling curve with a large enough effect; inconclusive = small, poorly fitted or top-dose-only effect; inactive = no such curve, though single readings can be large or run the other way;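 further: on the % scale 0 is the no-effect control and ±100 the full control effect; nearly all actives have a fitted effect of over 50% in size; the assay follows cell death caused by Vpr and the record does not say whether a fall means rescue or toxicity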
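Fission yeast RE007 carrying one integrated HIV-1 vpr copy, seeded at OD 0.01 in PMG+AL medium with 23 nL pinned compound. Grown 24 h at 30 degrees; viability read by BacTiter-Glo luminescence after 5 min.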
SARS PLpro yeast: SARS-CoV PLP inhibition in yeast; actives 0.19% (n = 330,000); AID 485353; S. cerevisiae expressing SARS-CoV PLpro, growth rescue; control for the full effect not named in the record; Potency, µM (highest dose often 32.9 µM), for the others: at the highest dose activity, positive = growth rescue; further: 0% is about no effect; nearly all actives have a fitted effect of over 55% in size; growth read by luminescence after 48 h
Cruzain noTriton: blocks cruzain activity in detergent-free assay. P25779. purified cruzain, Z-FR-AMC fluorescence, no detergent. Potency, µM, for the others: max response, negative = inhibition, most hits filed as inhibitors. actives 2.3% (n = 200,000). AID 1476; active means well fitted curve in the direction sought with a large enough effect; inconclusive means small, poorly fitted or top-dose-only effect, or another doubt; inactive means no such curve, though single readings can be large; an effect the other way counts as inactive or inconclusive;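 further: plate controls were enzyme without inhibitor for no effect and buffer without enzyme for full effect; nearly all actives have a fitted effect of over 40% in size; top concentration of the series not given in the record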
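Detergent-free condition (0.00005% Triton X-100) in acetate buffer pH 5.5 with DTT. 1.5 nM enzyme and compound were pre-mixed 15 min, then 2 uM Z-FR-AMC substrate added; reaction progress from fluorescence change between first and third reads (60 s).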
Active calls of the source: *; ? = inconclusive; · = not tested or not shown; & = joins results of further samples; [ ] = dose if it differs, or a comment. Unless noted, the call rests on the fitted dose curve; in most records, active means well fitted rising curve with a large enough effect; inconclusive means small, poorly fitted or top-dose-only effect; inactive means no such curve, though single readings can be large or run the other way. Potency means the concentration at half of the fitted maximal effect.

SMILES	NS1 function inh	MARV entry inh	Lassa entry inh	Cruzain Triton	2A StopGo	RE007 growth inh	SARS PLpro yeast	Cruzain noTriton
Cc1cccc(NC(=O)C2CCN(S(=O)(=O)c3ccc4c(c3)OCCO4)CC2)n1	·	-14%	-4%[46.1 µM]	·	?	-12%	2%	·
CC1CCOC2(O1)C(=O)N(CN1CCN(c3cccc(Cl)c3)CC1)c1ccccc12 (stereo not given)	1%	5%	15%	2.6%	-12%	-1%	1%	-5%
COc1ccc(OC)c(NC(=O)Cn2c(=O)n(Cc3nc(C)no3)c(=O)c3ccccc32)c1	·	·	21%[46.1 µM]	-2.9%	-1%	·	·	7%
CN(C)C(=O)CCC(=O)N1CCCC(N2CCN(c3cccc(C(F)(F)F)c3)CC2)C1 (stereo not given)	21%	-6%[46.1 µM]	23%[46.1 µM]	·	-7%	11%	2%	·
O=C(Nc1ccc(C(=O)N2CCN(c3ccc(F)cc3)CC2)cc1)c1nsc2ccccc12	·	·	1%[46.1 µM]	1.7%	19%	·	·	?
O=S(=O)(c1cccc2cccnc12)N1CCN(Cc2ccccc2)CC1	-3%	-4%[46.1 µM]	7%	·	-22%	11%	0%	·
O=C(c1ncc[nH]1)c1ccco1	-5%	10%	-1%	-1.1%	9%	5%	-5%	-14%
O=C(Cc1ccc(Cl)cc1)N/N=C/c1c(Cl)cccc1Cl	7%	-1%	?	-0.9%	15%	-9%	5%	?
COc1ccc2c(c1)CC(NC(=O)Nc1ccc(Br)c(C)c1)CO2 (stereo not given)	·	·	-13%[46.1 µM]	3.5%	-31%	·	·	4%
CC(=O)CSc1nc2c(c(=O)[nH]c(=O)n2C)n1Cc1ccccc1Cl	16%	-5%[46.1 µM]	-17%[46.1 µM]	·	-6%	36%	-2%	·
Cc1nn(C)cc1CN(C)S(=O)(=O)c1cccc([N+](=O)[O-])c1	2%	3%[46.1 µM]	2%	·	-4%	-10%	0%	·
Cc1ccc(CC(=O)N/N=C/c2ccc3c(c2)OCO3)cc1	·	?	-14%	·	71%[activator]	12%	3%	·
O=C(c1cccc(C(F)(F)F)c1)C1CCCN(C(=O)c2cc(C3CC3)[nH]n2)C1 (stereo not given)	-18%	·	·	·	-29%	2%	-1%	·
Cc1ccc(-n2c(CSc3nc(C)cc(C)n3)nnc2SCC(=O)NCc2ccco2)cc1	-1%	1%&-23%	-10%	-0.4%	11%	0%	5%	4%
COc1cc(C(=O)O)ccc1O	9%	1%	1%	1.4%	-1%	-4%	8%	-5%
Cc1c(CCC(=O)N[C@@H](CC(C)C)C(=O)O)c(=O)oc2c(C)c3oc4c(c3cc12)CCCC4	?	2%[46.1 µM]	0%[46.1 µM]	·	-18%	-4%	0%	·
Cc1ccc(-n2ncc3c(Nc4ccc5c(c4)OCCO5)ncnc32)cc1Cl	·	·	17%[46.1 µM]	5.2%	-23%	·	·	13%
CC(C)CNS(=O)(=O)c1ccc(CCC(=O)O)cc1	2%	9%	0%	-2.2%	-3%	26%	4%	-6%
COc1ccc(CNC(=O)CN2C(=O)CSc3ccc(S(=O)(=O)N4CCOCC4)cc32)cc1	1%	·	·	·	-2%	-6%	4%	·
COc1ccc(C)cc1S(=O)(=O)N(CC(=O)N1CCCC1)c1ccccc1	-1%	2%	-23%	7.3%	0%	0%	1%	0%
O=C(NC1CSC/C1=N\O)c1ccccc1 (stereo not given)	5%	15%	-1%	3.0%	-1%	10%	0%	-26%
COc1ccc(NC(=O)c2sc3nc(C)c(C(=O)Nc4ccc(C)cc4C)c(-c4ccc(Cl)cc4)c3c2N)cc1	·	-7%[46.1 µM]	-10%[46.1 µM]	-0.8%	12%	·	·	-9%
COc1ccc(S(=O)(=O)N2CCOCC2)cc1NC(=O)Cc1ccc(Cl)c(Cl)c1	9%	3%	0%	-6.2%	-1%	-8%	20%	?
CC1(C)c2[nH]c3ccccc3c2C[C@H]2C(=O)N(CCCCCO)CC(=O)N21	0%	8%[46.1 µM]	-15%[46.1 µM]	·	36%[activator]	11%	0%	·
CN(Cc1ccccc1O)CC1CCCN(CCc2ccc(Cl)cc2)C1 (stereo not given)	-25%	·	·	·	-21%	3%	2%	·

Ordered by molar mass (ascending): some entries from above
SMILES	NS1 function inh	MARV entry inh	Lassa entry inh	Cruzain Triton	2A StopGo	RE007 growth inh	SARS PLpro yeast	Cruzain noTriton
COc1cc(C(=O)O)ccc1O	9%	1%	1%	1.4%	-1%	-4%	8%	-5%
CC(C)CNS(=O)(=O)c1ccc(CCC(=O)O)cc1	2%	9%	0%	-2.2%	-3%	26%	4%	-6%
CC(=O)CSc1nc2c(c(=O)[nH]c(=O)n2C)n1Cc1ccccc1Cl	16%	-5%[46.1 µM]	-17%[46.1 µM]	·	-6%	36%	-2%	·
Cc1c(CCC(=O)N[C@@H](CC(C)C)C(=O)O)c(=O)oc2c(C)c3oc4c(c3cc12)CCCC4	?	2%[46.1 µM]	0%[46.1 µM]	·	-18%	-4%	0%	·
O=C(Nc1ccc(C(=O)N2CCN(c3ccc(F)cc3)CC2)cc1)c1nsc2ccccc12	·	·	1%[46.1 µM]	1.7%	19%	·	·	?

Further entries follow:
SMILES	NS1 function inh	MARV entry inh	Lassa entry inh	Cruzain Triton	2A StopGo	RE007 growth inh	SARS PLpro yeast	Cruzain noTriton
CCOC(=O)c1c(-c2cccs2)csc1NC(=O)CSc1ncn[nH]1	-2%	-25%	-12%	-13%	0%	8%	-10%	-4%
CCCCCCCC(=O)NN=C1CCN(Cc2ccccc2)CC1	3%	1%	?	-1.6%	5%	8%	-15%	-6%
Cc1ccc(NC(=O)CCC(=O)NNS(=O)(=O)c2ccccc2)cc1C	10%	-1%	-1%	-0.7%	-9%	2%	-14%	-4%
Cc1cc(N2Cc3ccccc3C2)ccc1C=O	-40%	·	·	·	41%[activator]	-28%	-10%	·
CCOC(=O)c1[nH]c2c(c1-c1ccccc1)C(=O)CC(c1ccc(OCC)cc1)C2 (stereo not given)	6%	-13%	-25%	-3.2%	-21%	11%	12%	3%
CCCOc1ccc(/C(O)=C2\C(=O)C(=O)N(CCCOC)C23C(=O)N(C)c2ccccc23)cc1 (stereo not given)	7%	-2%	-2%	-0.2%	-1%	34%	10%	?
Cc1ccc(-c2ccc(CCC(=O)O)n2NC(N)=S)cc1	-3%	?	?	-2.8%	-3%	1%	11%	1%
CC1CCCC(NC(=O)C2N(CCCN3CCCC3)C(=O)C3C(C(=O)Nc4cccc(Cl)c4)C4C=CC32O4)C1C (stereo not given)	2%	?	-10%[46.1 µM]	·	-12%	19%	3%	·
COc1ccc(OC)c(/C=N/n2c(COc3ccccc3)n[nH]c2=S)c1	-3%	·	·	·	-18%	15%	1%	·
CN(CCO)Cc1csc2ccc(Br)cc12	5%	?	-6%	2.3%	-19%	-4%	-4%	-9%
O=C(O)Cc1ccc(NS(=O)(=O)c2ccc3ccccc3c2)cc1	7%	·	·	·	0%	1%	-4%	·
CCOc1ccccc1N(CC(=O)Nc1ccccc1)S(=O)(=O)c1ccccc1	-2%	·	·	·	10%	-9%	8%	·
COc1ccc(C(=O)O)c(OC)n1	4%	·	·	·	-25%	-1%	0%	·
Cc1cccc(C)c1NC(=O)NC1(C(=O)NCCCN2CCOCC2)CCCCC1	1%	-8%	-6%	-1.1%	7%	2%	6%	4%
Cc1c(Cl)cccc1-c1ccc(C(=O)N2CCN(c3ccc([N+](=O)[O-])cc3)CC2)o1	-5%	?	?	-4.9%	?	-5%	4%	?
CC(=O)OC(C(=O)NC1CCCCC1)c1ccc(C)cc1 (stereo not given)	-1%	-13%[46.1 µM]	0%	3.0%	52%[activator]	19%	?	-4%
CC(CC(=O)Nc1cccc(Cl)c1)c1ccccc1 (stereo not given)	-37%	0%	?	-4.8%	-18%	-5%	-44%	-1%
COc1ccccc1-n1cnc2c(c1=O)c1nc3ccccc3nc1n2-c1ccc(C)cc1	?	-3%	9%	-2.7%	-15%	4%	-47%	?
COc1ccc(C(c2nnnn2Cc2ccccc2)N2CCN(c3nc4ccccc4s3)CC2)cc1OC (stereo not given)	28%	?	?	-6.8%	-2%	-15%	-5%	23%
O=C(c1cc(-c2ccc3c(c2)OCO3)on1)N1CCOCC1	-3%	?	?	1.8%	-57%	-8%	-4%	4%
C=CCn1c(C)cc(C(=O)COC(=O)C2CC(=O)N(CCc3ccc(OC)c(OC)c3)C2)c1C (stereo not given)	·	?	-6%	·	6%	-7%	0%	·
Cc1cc(C(=O)OCC(=O)NCCc2ccccc2)c(C)o1	-14%	18%	6%	-0.3%	18%	-7%	?	1%
CC(=O)c1c(O)cc(=O)n(-c2ccccc2)c1-c1cccc2ccccc12	?	-10%[46.1 µM]	-10%	-2.7%	-21%	31%	4%	-9%
CC(=O)Nc1ccc(S(=O)(=O)NC2(C(F)(F)F)NC(=O)N(C3CCCCC3)C2=O)cc1 (stereo not given)	1%	23%	-3%	1.4%	7%	6%	10%[6.58 µM]	-1%
CCc1ccccc1NC(=O)c1cc(S(=O)(=O)N2CCCC2)c[nH]1	2%	·	·	·	-5%	0%	2%	·
CC(C)NC(=O)CNc1ccc(C(F)(F)F)cc1[N+](=O)[O-]	1%	·	·	·	6%	2%	-8%	·
O=C(Nc1nc2c(s1)CCCC2)C1COc2ccccc2O1 (stereo not given)	-117%	?	5.8µM*	-7.0%	-23%	-24%	-45%	-3%

Reformatted field by field: part of the list above
> CN(Cc1ccccc1O)CC1CCCN(CCc2ccc(Cl)cc2)C1 (stereo not given)
- NS1 function inh = -25%
- MARV entry inh = ·
- Lassa entry inh = ·
- Cruzain Triton = ·
- 2A StopGo = -21%
- RE007 growth inh = 3%
- SARS PLpro yeast = 2%
- Cruzain noTriton = ·

> CCOC(=O)c1c(-c2cccs2)csc1NC(=O)CSc1ncn[nH]1
- NS1 function inh = -2%
- MARV entry inh = -25%
- Lassa entry inh = -12%
- Cruzain Triton = -13%
- 2A StopGo = 0%
- RE007 growth inh = 8%
- SARS PLpro yeast = -10%
- Cruzain noTriton = -4%
